VDR inhibitor: vitamin D3 receptor (human) inhibition; P11473; VDR-SRC2-3 peptide fluorescence polarization, 2 h; Potency, µM, for inactives: max response, negative = inhibition, usual class: inhibitors; 400,000 compounds, 0.93% hits; AID 504847; active means well fitted inhibition curve with a large enough effect; inconclusive means small, poorly fitted or top-dose-only effect, or another doubt; inactive means no such curve, though single readings can be large or run the other way; further: series mostly up to about 120 µM
Target sequence (P11473 whole entry, looked up): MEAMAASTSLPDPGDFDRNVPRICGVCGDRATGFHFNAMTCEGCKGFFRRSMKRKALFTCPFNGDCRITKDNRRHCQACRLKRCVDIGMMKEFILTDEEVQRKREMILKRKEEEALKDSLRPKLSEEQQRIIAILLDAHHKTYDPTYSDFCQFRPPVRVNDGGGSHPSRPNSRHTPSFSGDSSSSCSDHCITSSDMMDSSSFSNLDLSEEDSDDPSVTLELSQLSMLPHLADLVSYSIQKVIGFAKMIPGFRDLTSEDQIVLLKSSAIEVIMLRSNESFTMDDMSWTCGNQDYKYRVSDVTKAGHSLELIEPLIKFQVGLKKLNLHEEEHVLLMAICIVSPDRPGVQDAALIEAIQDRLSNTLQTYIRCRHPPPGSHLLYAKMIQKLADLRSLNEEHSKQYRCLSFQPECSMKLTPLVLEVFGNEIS
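Two reagent solutions held at 4 deg C in the dark were dispensed, compounds pinned at 23 nl, and the mixture incubated 2 h at room temperature. Read-out: fluorescence polarization of VDR–SRC2-3 peptide binding.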
An asterisk follows results filed as active; ? = inconclusive; & = joins results of further samples. On the % scale 0 is the no-effect control and ±100 the full control effect; potency means the concentration at half of the fitted maximal effect. Only part of the results is shown; the hit share may differ from the screen's.

SMILES	VDR inhibitor
COc1ccc(NC(=O)C2CCCN(S(=O)(=O)c3ccc4c(c3)CCCN4C(C)=O)C2)cc1 (stereo unspecified)	-8.4%&-1.4%
CC(C)CCNC(=O)c1nn(Cc2ccccc2)c(=O)c2ccccc12	8.3%
Cc1ccc(/C=N/Nc2nc3ccccc3[nH]2)s1	1.1%
Cc1ccc(S(=O)(=O)N2[C@@H](c3ccc(F)cc3)C(C(=O)O)=CC[C@H]2c2ccc3c(c2)OCO3)cc1	-2.7%
Cc1c(Br)c(C(F)(F)F)nn1CC(=O)N(C)C1CCCCC1	7.9%
CCC(=O)N1CCc2cc(S(=O)(=O)NCCC(=O)NCc3ccc(OC)cc3)ccc21	-2.0%
COc1ccc(Nc2nc(N3CCCC3)nc3ccccc23)c(OC)c1	10.4%
CC(=O)Nc1ccc(Nc2nc(-c3ccccc3)nc3ccccc23)cc1	-1.0%
CCN(CC)C(=O)C1CCCN(Cc2ccccc2C(F)(F)F)C1 (stereo unspecified)	-9.1%
Cc1cccc(C(=O)Nc2ccc(O)cc2)c1	-10.8%
COc1ccc(NC(=O)CCCN2C(=O)/C(=C\c3ccco3)SC2=S)cc1	3.6%
CCCCN(CCCNC(=O)c1ccc(CS(=O)(=O)c2ccc(OC)cc2)o1)Cc1ccccc1	-4.4%

Compounds listed so far that contain fluorine (three):
SMILES	VDR inhibitor
Cc1ccc(S(=O)(=O)N2[C@@H](c3ccc(F)cc3)C(C(=O)O)=CC[C@H]2c2ccc3c(c2)OCO3)cc1	-2.7%
Cc1c(Br)c(C(F)(F)F)nn1CC(=O)N(C)C1CCCCC1	7.9%
CCN(CC)C(=O)C1CCCN(Cc2ccccc2C(F)(F)F)C1 (stereo unspecified)	-9.1%

Back to the main list with the two entries that preceded the break.
SMILES	VDR inhibitor
COc1ccc(NC(=O)CCCN2C(=O)/C(=C\c3ccco3)SC2=S)cc1	3.6%
CCCCN(CCCNC(=O)c1ccc(CS(=O)(=O)c2ccc(OC)cc2)o1)Cc1ccccc1	-4.4%
Nc1ccc(S(=O)(=O)Nc2ccnn2-c2ccccc2)cc1	8.0%&-13.6%&-28.8%&-7.8%&7.1%
Cc1nn(CCC(=O)NNC(=S)Nc2ccc(F)cc2)c(C)c1[N+](=O)[O-]	-1.9%
O=C(N/N=C/c1cccnc1)c1ccc(Cl)c(Cl)c1	0.4%
CCN(CC)S(=O)(=O)c1ccc(C(=O)NCC(c2cccs2)N2CCOCC2)cc1 (stereo unspecified)	18.7%
COC(=O)c1cccc(C23CC4(C2)[C@H](CN(Cc2ccc(C(F)(F)F)cc2)[C@@H]4c2ccccc2)C3c2ccc(C(F)(F)F)cc2)c1 (stereo partly specified)	-9.3%
CC(=O)c1ccc(NC(=O)CSc2cn(CC(=O)N3CCCCC3)c3ccccc23)cc1	3.9%
Cc1ccc(-n2ncc3c(NCc4cccnc4)ncnc32)cc1C	-7.8%
O=S(=O)(c1cccc2cccnc12)N1CCN(c2ccc(F)cc2)CC1	-11.8%
O=C(NCC1CCCCC1)c1cc2ccccc2cc1O	-4.4%
CC(C)c1ccc(NC(=O)CCNS(=O)(=O)c2ccc3c(c2)CCCC(=O)N3)cc1	13.5%
CCN(CC)CCn1c2c(c(SCC(=O)Nc3nc(C)cs3)nc1=O)CCCC2	5.0%
Cc1ccc(-c2cc(C(=O)N/N=C\c3cnn(C)c3C)c3ccccc3n2)cc1C	-8.2%
O=C(CCC(=O)N1CCCC1)Nc1ccc([N+](=O)[O-])cc1	-22.4%
CCN1/C(=C2\SC(=S)N(Cc3ccccc3)C2=O)Sc2ccccc21	-13.8%
COc1cc(OC)c(OC)cc1/C=C(\C#N)C(=O)NCc1cccs1	-0.8%
O=C(NCc1ccc2c(c1)OCO2)c1cc2ncc(Br)cn2n1	13.2%
O=C(O)c1cc(-c2ccc(/C=N/NC(=S)Nc3ccccc3)o2)ccc1Cl	-14.4%
CCOC(=O)c1[nH]c(C)c(CN(CCc2ccccc2)C(=O)CCC(=O)O)c1C	1.0%
Cc1ccc(-c2cc(C(=O)Nc3ccccn3)c3ccccc3n2)o1	-19.6%
CCOc1ccc(C(=O)NC(=S)Nc2ccccc2OC)cc1[N+](=O)[O-]	2.1%
CC(C)c1ccc(/C=C(\C#N)c2nc(-c3cc4ccccc4oc3=O)cs2)cc1	-21.8%
COc1ccc(CCNC(=O)CSc2nc3sc(C(=O)O)c(C)c3c(=O)[nH]2)cc1OC	-9.7%
COc1ccc2[nH]c(=O)c(CN(Cc3ccccc3)C(=S)NCC3CCCO3)cc2c1 (stereo unspecified)	-9.9%
CCO[C@H]1OC(C(=O)Nc2ccccc2)=C[C@@H](C)[C@@H]1CCCO	-3.9%

As a short view, part of the list above:
SMILES	VDR inhibitor
CCOC(=O)c1[nH]c(C)c(CN(CCc2ccccc2)C(=O)CCC(=O)O)c1C	1.0%
Cc1ccc(-c2cc(C(=O)Nc3ccccn3)c3ccccc3n2)o1	-19.6%

Next structures follow.
SMILES	VDR inhibitor
c1ccc2[nH]ccc2c1	5.6%
CC1(C)C2CCC1(CS(=O)(=O)NCc1ccc(C(=O)O)cc1)C(=O)C2 (stereo unspecified)	-13.5%
CCNC(=O)NC1(C(=O)Nc2ccc3c(c2)OCCO3)CCCCC1	-2.6%
O=[N+]([O-])c1ccc(S(=O)(=O)NNC(=S)NCCc2ccccc2)cc1	-6.5%
CCOC(=O)C1=NN(c2ccccc2C)C2=NC(C)=C(C(=O)OC)C(c3cccc(OC)c3)N12 (stereo unspecified)	3.4%
COc1ccc(NC(=O)CCN2C(=O)c3ccccc3S2(=O)=O)c(OC)c1	-1.3%
O=C(O)C1CC(=O)N(CCOc2ccccc2)C1 (stereo unspecified)	19.2%
Cc1ccc(Cn2c(CN3CCN(c4cccc(Cl)c4)CC3)nc3c2c(=O)n(C)c(=O)n3C)cc1	6.2%
COc1ccc(CN2CCCN(C)CC2)c(OC)c1C	4.0%
COc1ccccc1C(=O)NC(=O)COC(=O)CNC(=O)c1ccccc1F	-1.3%
CC(=O)Nc1cccc(NC(=O)C(=O)NCC(c2ccco2)N2CCc3ccccc32)c1 (stereo unspecified)	2.3%
COC(=O)CN(c1ccc(C(C)C)cc1)S(=O)(=O)c1c(C)[nH]c(=O)[nH]c1=O	5.3%
C=CCn1c(=NC(=O)CC)n(C)c2ccccc21	11.3%
CCCOC(=O)c1ccc(Oc2coc3c(CN(CC)CC)c(O)ccc3c2=O)cc1	-9.9%
COc1ccc(Cc2noc(CN(C)CC(O)c3ccccc3)n2)cc1OC (stereo unspecified)	-9.3%
C=CCCN(C(Cc1ccccc1)C(=O)OC)S(=O)(=O)c1cc(Br)ccc1Br (stereo unspecified)	5.5%
COc1ccc(C2NC(=O)CCC2[N+](=O)[O-])cc1 (stereo unspecified)	3.8%
CC1CCc2c(c3ccccc3n2C(=O)CCl)C1 (stereo unspecified)	?
Cc1ccccc1N1CCN(S(=O)(=O)c2nnc(NC(=O)c3ccc(Cl)cc3)s2)CC1	-13.3%
COCCn1c(=S)[nH]c2cc(C(=O)NCC3CCCO3)ccc2c1=O (stereo unspecified)	11.8%
CCC(C)C(NC(=O)c1ccccc1NC(=O)c1ccco1)C(=O)NC1CCCCC1 (stereo unspecified)	0.4%
O=C(NC1CC1)c1cccc(S(=O)(=O)N2CCOCC2)c1	10.7%
COCCC(=O)N1CCC(n2nccc2NC(=O)CCc2ccccc2)CC1	5.7%
NS(=O)(=O)c1ccc(CNC(=O)CCC2CCCCC2)cc1	-7.4%
O=C(Nc1cccc(Oc2c(F)c(F)c(F)c(F)c2F)c1)N1C[C@@H]2C[C@@H](C1)c1cccc(=O)n1C2	-3.8%
O=C(c1cc(F)ccc1F)C1CCCN(Cc2cccn2-c2ccccn2)C1 (stereo unspecified)	-5.2%
COCCNC(=O)c1cn(C)c2ccc(S(=O)(=O)N(C)C3CCCCC3)cc2c1=O	-20.0%
COc1cc(OC)c(/C=N/NC(=O)COc2cccc3cccnc23)c(OC)c1	-1.2%
Cc1cccc(Nc2nnc(SCC(=O)NC3CCCc4ccccc43)s2)c1 (stereo unspecified)	-6.5%
COc1ccccc1Nc1c([N+](=O)[O-])cncc1[N+](=O)[O-]	-4.0%
CCOCCCNC(=O)C(c1ccc(Cl)cc1)N(Cc1cccs1)C(=O)c1ccc(NC(C)=O)cc1 (stereo unspecified)	12.8%
C=CCn1c(Cc2ccc(OC)cc2)nnc1SCc1nc2ccccc2c(=O)[nH]1	7.1%
CC(=O)Nc1sc2c(c1C(N)=O)CCC2	4.7%
CN1CCN(c2nc(-c3ccc(N(C)C)cc3)nc3ccccc23)CC1	-0.9%
O=[N+]([O-])c1ccc(N2CCN(c3nc(-c4ccc(Cl)cc4)cs3)CC2)cc1	-2.5%
CC1C(=O)Nc2ccccc2N1C(=O)c1ccc(F)cc1 (stereo unspecified)	-2.6%
CCCCN(C)C(=S)Nc1ccc2nc3n(c(=O)c2c1)CCCCC3	3.7%
CCOc1ccc(OCCSc2nc3ccccc3[nH]2)cc1	1.9%
COc1ccc(OC)c(S(=O)(=O)n2nc(-c3ccccc3)cc2N)c1	-3.1%
COc1ccc(SC[C@H](Cc2ccccc2)N2CCN(C)CCC2=O)cc1	-11.7%
O=C(O)CCCCCNC(=O)CCn1nnc2ccccc2c1=O	13.2%
Cc1cccc(C)c1NC(=O)Cn1c(=O)cc(C)c2c(C)nn(-c3cccc(Cl)c3C)c21	9.0%
COc1ccc(CCNC(=O)C2CCC(=O)N(C3CC3)C2)c(OC)c1 (stereo unspecified)	-8.2%
COCCCNC(=O)c1cccc(S(=O)(=O)N2CC3(C)CC2CC(C)(C)C3)c1 (stereo unspecified)	-15.7%
O=C(C1=C[C@@H](C2CCCCC2)C[C@@H](OCCCCO)O1)N1CCN(Cc2ccccc2)CC1	-6.9%
COc1ccccc1NC(=O)NC1CCS(=O)(=O)C1 (stereo unspecified)	-6.4%
CCOC(=O)c1ccccc1NC(=O)c1ccc2c(=O)n3c(nc2c1)CCCCC3	-8.3%
COc1ccc(NC(=O)c2cccc(S(=O)(=O)NCc3ccccc3)c2)cc1S(N)(=O)=O	12.6%
Cc1cc2nc3c(=O)n(CCc4ccccc4)c(=O)[nH]c3nc2cc1N	-27.3%
COc1cc2c(cc1OC)CN(C(=O)CN(C)S(=O)(=O)c1ccc(NC(C)=O)cc1)CC2	-2.7%
Cn1c(=O)c2c(ncn2CC(=O)N/N=C/c2ccc(Br)s2)n(C)c1=O	-9.2%
CC1CC(C)(C)NC(=S)N1CCCC(=O)N1CCN(c2ccccc2F)CC1 (stereo unspecified)	-4.1%
Cc1oc(-c2ccccc2F)nc1CS(=O)(=O)CC(=O)N1CCN(Cc2ccccc2)CC1	-10.8%
CSc1ccccc1NC(=O)COC(=O)/C=C/c1ccco1	-10.6%
COC(=O)c1sc2ccccc2c1-n1cccc1C(=O)C(=O)Nc1ccc(OC)cc1	9.9%
CCOC(=O)c1c(C)[nH]c(C(=O)OCC(=O)NC2CCS(=O)(=O)C2)c1C (stereo unspecified)	8.4%
CCN(c1ccccc1C(=O)O)S(=O)(=O)c1cccc2nsnc12	5.5%
Cc1noc(C)c1-c1ccc2ncnc(NCc3ccccc3)c2c1	5.5%
Cc1ccc(S(=O)(=O)N/N=C/c2cccc3c2OCCO3)cc1	4.7%
CCOC(=O)N1CCN(S(=O)(=O)CCNC(=O)c2cccc(OC)c2)CC1	-12.0%
The results go on:
SMILES	VDR inhibitor
O=C(ON=C1CCN(S(=O)(=O)c2ccccc2)CC1)c1ccc(Cl)cc1	-11.2%
COc1ccc(-c2nnc(SCc3cccc(C#N)c3)o2)cc1	-4.8%
CCOc1ccc(S(=O)(=O)N2CCOCC2)cc1NS(=O)(=O)c1ccc(OC)c([N+](=O)[O-])c1	-13.7%
CCN(CC)c1nc2ccccc2nc1C(=O)Nc1cc(OC)c(OC)c(OC)c1	22.4%
Cc1ccc(C(=O)NCC(=O)OCC(=O)c2ccc3c(c2)NC(=O)CO3)cc1C	-27.8%
CCNC(=S)N1CCN(c2ccc([N+](=O)[O-])cc2)CC1	-8.9%
CN1CCN(CC(=O)Nc2ccccc2Sc2ccccc2)CC1	-5.0%
Cc1ccc(S(=O)(=O)N2CCCCC2)cc1C(=O)N1CCCCCC1	3.9%
COC(=O)[C@H]1[C@H]2C[C@H]3c4[nH]c5ccccc5c4CCN3C[C@@H]2CC[C@@H]1O	-10.4%&0.7%
CN1CCN(c2ccc(NC(=O)c3ccc4c(c3)OCO4)cc2)CC1	11.4%
CCc1nnc(NC(=O)CSc2nc3c(cc2C#N)CCCC3)s1	6.9%
CCc1c(C)nc(SCCOc2ccc(OC)cc2)[nH]c1=O	5.1%
Fc1ccc(-c2nnc(-c3ccc(Cl)cc3Cl)o2)cc1	-15.5%
NS(=O)(=O)c1ccc(NCCCn2ccnc2)c([N+](=O)[O-])c1	2.9%
Cn1nccc1C(=O)NC1CCCc2c1cnn2-c1ccc(C(C)(C)C)cc1 (stereo unspecified)	-4.5%
CCCN1CCN(CCCNC(=O)CN2C(=O)c3cccnc3Oc3ccc(C)cc32)CC1	-13.9%
Cc1cc(S(=O)(=O)NCCC2=CCCCC2)ccc1Br	-10.4%
Cn1c(=O)c2c(nc(NCCO)n2C)n(C)c1=O	5.2%
O=C(Nc1cccc(C(=O)O)c1)/C(=C\c1ccco1)NC(=O)c1ccccc1Cl	?
FC(F)c1nnc2ccc(Cl)nn12	-0.9%
COc1ccc(Cn2c(C)c(C)c(C#N)c2NC(=O)Nc2ccccc2)cc1	-3.8%
O=C(NNC(=S)Nc1ccccc1)c1cc(-c2cccnc2)nc2ccccc12	?
Cc1ccc(OC(=O)CCN2C(=O)c3ccccc3C2=O)cc1C	6.2%
CCOC(=O)CC1CCCCN1Cc1cn(C)nc1-c1ccc2c(c1)OCCO2 (stereo unspecified)	5.9%
Cc1ccc(NC(=O)C2CCCN2C(=O)c2cccs2)c(C)c1 (stereo unspecified)	-3.2%
CC(=O)c1cnn(-c2cc(Oc3ccccc3C)ncn2)c1C	-5.8%

Bioassay records (PubChem)
